Screening results: PubChem, several laboratories
PrP 5UTR inh – inhibition of PrP 5' UTR reporter expression; cell-based PrP 5' UTR mRNA reporter, plate reader; inhibition, % (no concentration beside the values); actives 0.35% (n = 340,000);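 active = every replicate at 50% or more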;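 note: 0 = median of the neutral control wells; tested in H4 reporter cells; numbers are from one replicate; inactives centre near -14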
Bead autofluor – flagged as autofluorescent in microsphere protease counterscreen; compound autofluorescence counterscreen, microsphere flow cytometry; hits give high values; fluorescence intensity (test concentration not listed); actives 3.1% (n = 360,000);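 active = at least 3 SD above the mean of all compounds, about 16000 in these data; inconclusive = too few beads counted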;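 note: 100 nL of 1 mM stock went into each well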
Mtb hypoxia inh – PubChem AID 1159583. fluorescence inhibition, % (test concentration not listed). M. tuberculosis hypoxia-regulated fluorescent reporter, fluorescence. actives 0.1% (n = 300,000);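 active = 35 to 45% if threefold the growth effect, above 45% if 1.5-fold the growth effect; inactive = the rest, general growth blockers included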;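 note: wells of about 50 µL received 100 nL stock; 0% = vehicle wells and 100% = reference inhibitor wells; whole bacteria with a GFP reporter of the hypoxia response; strong numbers were not always called active; many hits fall short of the cut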
BJeLR viability – MLPCN primary cell-based screen for lethality selective to Ras in HRASV12 cells; actives 0.17% (n = 300,000); inhibition, % (test concentration not listed); AID 1554, 2009; BJeLR (HRASV12) viability, CellTiter-Glo ATP luminescence, 48 h; reference of the scale not given here;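 active = replicate mean above 50%; inconclusive = above 50% but judged a plate artefact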;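 note: 50 nL library stock added to about 25 µL; numbers are from one replicate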
RN4220 kill – growth inhibition of S. aureus RN4220, primary screen, OD600; 16 h; inhibition, % (concentration not given with the values); actives 0.33% (n = 330,000);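 active = z-score of -3 or lower and OD600 up to 0.18 on both plates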;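 note: plate controls were untreated cells for no effect and reference antibiotic for full effect; stock transfer was 100 nL into about 80 µL; one replicate is shown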
Sa ugtP lethal – growth inhibition of ugtP-null S. aureus, primary screen, RN4220 ugtP deletion, OD600 | growth inhibition, % (no concentration beside the values) | AID 1259309, 2017 | 16 h; some inactives read as strong as hits | actives 0.54% (n = 330,000);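 active = z-score under -3 and OD600 up to 0.15 on both plates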;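 note: plate controls were untreated wells for no effect and antibiotic for full effect; wells of about 80 µL received 100 nL stock; the first replicate is given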
Mtb hypoxia inh growth – also measured in Mtb hypoxia inh; calls as there; growth inhibition, %; measured here: M. tuberculosis growth (absorbance);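 0% = vehicle and 100% = reference antibiotic; read after six days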
Active calls of the source: *; ? = inconclusive; / = no result given.

SMILES | PrP 5UTR inh | Bead autofluor | Mtb hypoxia inh | Mtb hypoxia inh growth | BJeLR viability | RN4220 kill | Sa ugtP lethal
CSc1cccc(NC(=S)N(CCC(C)C)C2CCN(C(C)=O)CC2)c1 | -9 | 3480 | 10 | 9 | -8 | 2.0 | 8
CC1=CC(C)(C)N2C(=O)C3(C(C#N)=C(N)OC4=C3C(=O)CC(C)(C)C4)c3cc(C)cc1c32 (stereo not drawn) | / | 11591 | -1 | 2 | -1 | 19 | -20
Cc1ccc(NC(=S)Nc2ccc(Br)cc2)cc1 | -7 | 2423 | 5 | 17 | -1 | -1.2 | -11
CCOC(=O)C1=C(CN2CCN(C(=O)c3ccco3)CC2)NC(=O)NC1c1ccc(OC)cc1 (stereo not drawn) | -14 | 4367 | 7 | 4 | 4 | -0.7 | 4
O=C(c1cccc(S(=O)(=O)N2CCc3ccccc32)c1)N1CCN(c2ccccn2)CC1 | 10 | 4299 | 2 | 14 | 23 | 5.5 | 13
O=C(Cn1ccc([N+](=O)[O-])n1)Nc1ccccn1 | -21 | 5599 | 3 | 3 | 5 | 1.2 | 12
COc1ccc(C(=O)NNC2=Nc3cccc4cccc2c34)cc1 | -15 | 4615 | 7 | 0 | 0 | 2.8 | 6
FC(F)(F)C(F)(F)C(F)(F)c1nnc2ccc(N3CCOCC3)nn12 | -18 | 5896 | / | / | -2 | 4.8 | -3
COC(=O)CNC(c1ccccc1)c1cc(Br)ccc1NC(=O)OCc1ccccc1 (stereo not drawn) | -21 | 4944 | / | / | 9 | 1.9 | 8
Cc1ccc(S(=O)(=O)N2CC(=O)N3CCN(CCN)C3C2)cc1 (stereo not drawn) | -5 | 4040 | 2 | 8 | / | -2.7 | -16
COc1ccc(N2CCN(C(=O)Cc3ccc(-n4c(=O)[nH]c5ccccc5c4=O)cc3)CC2)cc1 | 3 | 4148 | 3 | 22 | -5 | 5.7 | 1
CCOc1ccccc1C(=O)Nc1ccc(NC(=O)c2ccccc2)cc1 | 9 | 3649 | -4 | 1 | 5 | -0.1 | 0
O=C1/C(=C/c2cccnc2)CC/C1=C\c1cccnc1 | -16 | 4506 | 10 | 7 | 0 | 5.0 | 3
CCNC(=O)CC1C(=O)N(c2ccc(C)cc2)C(=O)N1CCc1ccc(OC)c(OC)c1 (stereo not drawn) | -30 | 9404 | 11 | 12 | 7 | 2.9 | 2
Cc1cc(C)nc(Nc2n[nH]c(-c3ccccc3Br)n2)n1 | -36 | 3025 | / | / | 11 | 1.0 | 5

12 structures out of the list, arranged by number of heavy atoms, ascending:
SMILES | PrP 5UTR inh | Bead autofluor | Mtb hypoxia inh | Mtb hypoxia inh growth | BJeLR viability | RN4220 kill | Sa ugtP lethal
O=C(Cn1ccc([N+](=O)[O-])n1)Nc1ccccn1 | -21 | 5599 | 3 | 3 | 5 | 1.2 | 12
O=C1/C(=C/c2cccnc2)CC/C1=C\c1cccnc1 | -16 | 4506 | 10 | 7 | 0 | 5.0 | 3
Cc1cc(C)nc(Nc2n[nH]c(-c3ccccc3Br)n2)n1 | -36 | 3025 | / | / | 11 | 1.0 | 5
Cc1ccc(S(=O)(=O)N2CC(=O)N3CCN(CCN)C3C2)cc1 (stereo not drawn) | -5 | 4040 | 2 | 8 | / | -2.7 | -16
COc1ccc(C(=O)NNC2=Nc3cccc4cccc2c34)cc1 | -15 | 4615 | 7 | 0 | 0 | 2.8 | 6
FC(F)(F)C(F)(F)C(F)(F)c1nnc2ccc(N3CCOCC3)nn12 | -18 | 5896 | / | / | -2 | 4.8 | -3
CSc1cccc(NC(=S)N(CCC(C)C)C2CCN(C(C)=O)CC2)c1 | -9 | 3480 | 10 | 9 | -8 | 2.0 | 8
CCOc1ccccc1C(=O)Nc1ccc(NC(=O)c2ccccc2)cc1 | 9 | 3649 | -4 | 1 | 5 | -0.1 | 0
COC(=O)CNC(c1ccccc1)c1cc(Br)ccc1NC(=O)OCc1ccccc1 (stereo not drawn) | -21 | 4944 | / | / | 9 | 1.9 | 8
CC1=CC(C)(C)N2C(=O)C3(C(C#N)=C(N)OC4=C3C(=O)CC(C)(C)C4)c3cc(C)cc1c32 (stereo not drawn) | / | 11591 | -1 | 2 | -1 | 19 | -20
CCOC(=O)C1=C(CN2CCN(C(=O)c3ccco3)CC2)NC(=O)NC1c1ccc(OC)cc1 (stereo not drawn) | -14 | 4367 | 7 | 4 | 4 | -0.7 | 4
COc1ccc(N2CCN(C(=O)Cc3ccc(-n4c(=O)[nH]c5ccccc5c4=O)cc3)CC2)cc1 | 3 | 4148 | 3 | 22 | -5 | 5.7 | 1

Further results:
SMILES | PrP 5UTR inh | Bead autofluor | Mtb hypoxia inh | Mtb hypoxia inh growth | BJeLR viability | RN4220 kill | Sa ugtP lethal
CCOC(=O)N1CCC(NC(=O)CSCc2cnn(-c3ccccc3)c2-n2cccc2)CC1 | -17 | 3378 | 4 | 8 | 0 | -14 | -1
O=C(NC1CCCCCC1)C(=S)N1CCOCC1 | -19 | 3271 | 0 | 5 | 1 | 7.6 | 1
c1ccc(CNC2=NCCCCC2)cc1 | -11 | 7406 | -18 | -27 | -9 | 3.5 | -3
O=C(COC(=O)COc1ccc2ccccc2c1)Nc1cc(C(F)(F)F)ccc1N1CCOCC1 | 0 | 2019 | -5 | -11 | -4 | 8.0 | -8
Cc1cc(C)c2c(=O)[nH]c(SCC(=O)NCc3ccccc3)nc2n1 | 6 | 8918 | 2 | 5 | -3 | 1.9 | 3
O=C(Cn1c(CN2CCCCC2)nc2ccccc2c1=O)NC1CCCCC1 | -6 | 6058 | 2 | 6 | -2 | 5.1 | 1
COc1cccc2[nH]c3c(=O)n(CCN(C)C)cnc3c12 | -3 | 2379 | 4 | 2 | -4 | -2.7 | 3
OCCNNC(=S)NC1CC2C=CC1C2 (stereo not drawn) | 0 | 5910 | -14 | -1 | -5 | 7.0 | 0
CC(=O)Nc1ccc(NC2(C)C(=O)c3ccccc3C2=O)cc1 | -17 | 2708 | / | / | -1 | 1.0 | -8
CCC(C)Sc1nc2c(cnn2-c2ccc(C)c(C)c2)c(=O)[nH]1 (stereo not drawn) | -3 | 5855 | 16 | 8 | -6 | 8.7 | 3
Cc1cccc(NC(=O)CSc2cccc3cccnc23)c1C | -1 | 3309 | -3 | 3 | -19 | 1.4 | 7
O=C(c1ccco1)N1CCN(C(=S)Nc2ccc(F)c(Cl)c2)CC1 | -2 | 6291 | 5 | 3 | 0 | -0.2 | 0
Cc1ccc(C2=NOC(c3nnc(-c4ccccc4)o3)C2)cc1 (stereo not drawn) | -10 | 3843 | 12 | 8 | 6 | 3.0 | -1
O=C(Oc1ccc(Br)cc1C(=S)N1CCOCC1)c1ccc([N+](=O)[O-])cc1[N+](=O)[O-] | -15 | 3524 | 7 | 8 | -1 | 4.8 | 17
CCC(C)n1c(O)c(C=NCC2CCCO2)c(=O)[nH]c1=S (stereo not drawn) | 10 | 4462 | 9 | 2 | -20 | 2.7 | 3
CC(=O)Nc1cccc(C(C)=NNC(=O)c2cccs2)c1 | / | / | 3 | 3 | / | 0.5 | -2
Cc1nc(-c2ccc(NC(=O)C3CC3)cc2)cs1 | -66 | 5100 | 12 | 15 | 0 | 0.9 | 0
CCOc1ccccc1CNC(=O)Cn1nc(C)c2c(C)n(-c3ccc(C)cc3)nc2c1=O | 5 | 4576 | 7 | 0 | 1 | 8.8 | 1
C=C(C)C(=O)Nc1cccc(C2=NOC3(C2)CC(C(N)=O)N(C(=O)CC(c2ccccc2)c2ccccc2)C3)c1 (stereo not drawn) | / | / | 4 | 10 | / | -0.5 | 0
CCN(CC)S(=O)(=O)c1cccc2cccnc12 | -44 | 5464 | 10 | 5 | -2 | 1.9 | 4
COc1cccc(/C=N/NC(=O)c2cccc3ccccc23)c1 | -18 | 4035 | / | / | 3 | / | /
COc1cc(C)ccc1OCc1cc(C(=O)N(Cc2c(C)nn(C)c2C)C2CC2)no1 | -59 | 5187 | 6 | 5 | 2 | 4.8 | 6
COc1ccc(CCN(C)C2CCCN(S(=O)(=O)c3ccc(C)cc3)C2)cc1OC (stereo not drawn) | -22 | 4008 | -2 | -4 | 1 | 1.8 | 3
COc1ccc(Nc2nc(N3CCCCC3)nc(N3CCCCC3)n2)c(OC)c1 | / | 10251 | 5 | 14 | 1 | -0.6 | 42
O=C(CN1C(=O)C2CCCCC2C1=O)OCC(=O)c1ccc(Cl)s1 (stereo not drawn) | -25 | 4583 | 10 | 1 | 2 | 0.1 | -1
O=C(O)c1ccccc1-n1cccc1C(=O)O | -10 | 6350 | -2 | 4 | -12 | 2.6 | 10
Cc1ccc(CNC(=O)c2ccc(N(C)S(=O)(=O)c3ccccc3)cc2)cc1 | -12 | 4478 | 4 | -2 | 2 | 0.6 | 5
CCn1c(=NC(=O)CSC(C)=O)sc2cc(F)ccc21 | -25 | 2626 | / | / | 8 | 5.7 | 13
O=C(OCCN1CCOCC1)c1cccs1 | -16 | 4382 | 5 | 1 | -8 | 3.5 | 4
O=S(=O)(NCCC(c1ccc(F)cc1)c1ccco1)c1ccccc1 (stereo not drawn) | -6 | 2474 | 4 | 5 | -2 | 7.2 | 0
COCCCNC(=O)c1c[nH]c2ccc(S(=O)(=O)N3CCC(C)CC3)cc2c1=O | -20 | 4273 | 6 | 0 | -4 | 8.4 | 19
COc1ccc(C)cc1NC(=O)C(OC(=O)CNC(=O)c1cccc(F)c1)c1ccccc1 (stereo not drawn) | 12 | 2033 | 4 | -2 | 8 | 3.6 | 8
O=C(Cn1cnc2ccccc2c1=O)Nc1nnc(SCc2ccccc2)s1 | 4 | 10102 | 8 | 12 | -5 | -4.0 | 15
Cc1c(C)n(C(=O)CN2CCN(c3ccccc3)CC2)c2ccccc12 | -15 | / | 9 | -8 | 0 | 4.6 | -10
COc1ccc(NC(=O)N2C3CCCC2CC(NC(=O)C2CC2)C3)cc1 (stereo not drawn) | -23 | 3543 | 5 | 3 | 3 | -1.4 | 3
CCc1nnc(NC(=O)C(=O)NCCOC(=O)c2ccccc2)s1 | -20 | 7472 | -2 | 1 | -4 | 3.6 | 0
c1cc2c(cc1-n1cnnn1)OCO2 | -45 | 3929 | -6 | -6 | -3 | 16 | 10
CN(CCc1ccccn1)c1ccc([N+](=O)[O-])cn1 | -19 | 5660 | -2 | 9 | 4 | 2.7 | 9
COC(=O)c1ccccc1NC(=O)CNCCc1ccc(OC)c(OC)c1 | -11 | 5114 | 1 | 8 | 2 | 4.1 | 7
NC1=NC[C@H](Cc2ccc(O)cc2)N1CCc1cccc2ccccc12 | -8 | 3909 | / | / | 1 | / | /
CSc1ncccc1C(=O)OCc1ccc(Br)cc1 | -11 | 3999 | 10 | 5 | -18 | 43 | 1
CC(=O)N(Cc1ccc(Br)cc1)c1cccc(C)c1C | -16 | 3813 | -8 | -2 | -8 | 4.1 | -6
COc1cccc(C(=O)NC2CCN(C(=O)N3CCCCC3)CC2)c1 | -19 | 10300 | 12 | 10 | -4 | 3.3 | 7
COCCCNC(=O)c1ccc(NC(C)=O)cc1 | -14 | 3162 | 8 | 16 | -2 | -1.7 | 6
COc1ccc(C)c2sc(NC(=O)c3cccc(N4C(=O)CCC4=O)c3)nc12 | -29 | 4565 | -2 | -4 | -2 | 1.6 | 2
CCCN1CNC(=S)N(c2ccc(C)cc2C)C1 | -6 | / | 8 | 4 | -2 | 2.6 | 3
Cc1cc(NC(=O)CSC2=NCCS2)no1 | -19 | 9681 | 6 | 8 | -12 | 4.2 | 6
CCCN(CC(=O)Nc1ccc(F)c(F)c1F)C(=O)Cn1c(=O)cnc2ccccc21 | -15 | ? | 7 | 2 | -8 | 1.5 | 1
CCCCCCCCCCCCN1[C@@H](CC(=O)O)c2cc(C(F)(F)F)ccc2S1(=O)=O | -28 | 4665 | / | / | 7 | / | /
O=C(CSCc1c(Cl)cccc1Cl)Nc1ccc2c(c1)OCCO2 | -33 | 1907 | 2 | 9 | -4 | -0.6 | -12
CCC1(CC)Cc2ccccc2C(=O)N1 | -18 | 4658 | 17 | 8 | -8 | 3.7 | 3
CCOc1ccc(N2CC(C(=O)Nc3ccc(S(=O)(=O)NCC4CCCO4)cc3)CC2=O)cc1 (stereo not drawn) | -29 | 5113 | -10 | 8 | -11 | 3.5 | 7
COc1cc(OC)cc(C(=O)NCC(=O)OCC(=O)c2cc(C)n(Cc3ccco3)c2C)c1 | -21 | 9815 | 2 | 4 | -4 | 3.4 | 3
